# GALR2 agonist – activates the human galanin receptor 2; 0.48% of 140,000 active; O43603; AID 803; activation, %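 (tested at 5 µM)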; GALR2-expressing cells, agonist activation read-out;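 active = above mean plus 3 SD of all compounds, about 5% in these data, not always enough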;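 also: 0% = vehicle buffer wells and 100% = reference agonist at full effect; tested in CHO reporter cells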
# PKD1 kinase inh – blocks activity of human protein kinase D1 | Q15139 | PKD1 kinase fluorescence polarization assay | inhibition, %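 (about 10 µM by stock and volumes)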 | 0.056% of 200,000 active | AID 797;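 active = inhibition of 50% or more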;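 also: controls were vehicle for no effect and a reference inhibitor for full effect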
# Target sequence (Q15139 whole entry, looked up): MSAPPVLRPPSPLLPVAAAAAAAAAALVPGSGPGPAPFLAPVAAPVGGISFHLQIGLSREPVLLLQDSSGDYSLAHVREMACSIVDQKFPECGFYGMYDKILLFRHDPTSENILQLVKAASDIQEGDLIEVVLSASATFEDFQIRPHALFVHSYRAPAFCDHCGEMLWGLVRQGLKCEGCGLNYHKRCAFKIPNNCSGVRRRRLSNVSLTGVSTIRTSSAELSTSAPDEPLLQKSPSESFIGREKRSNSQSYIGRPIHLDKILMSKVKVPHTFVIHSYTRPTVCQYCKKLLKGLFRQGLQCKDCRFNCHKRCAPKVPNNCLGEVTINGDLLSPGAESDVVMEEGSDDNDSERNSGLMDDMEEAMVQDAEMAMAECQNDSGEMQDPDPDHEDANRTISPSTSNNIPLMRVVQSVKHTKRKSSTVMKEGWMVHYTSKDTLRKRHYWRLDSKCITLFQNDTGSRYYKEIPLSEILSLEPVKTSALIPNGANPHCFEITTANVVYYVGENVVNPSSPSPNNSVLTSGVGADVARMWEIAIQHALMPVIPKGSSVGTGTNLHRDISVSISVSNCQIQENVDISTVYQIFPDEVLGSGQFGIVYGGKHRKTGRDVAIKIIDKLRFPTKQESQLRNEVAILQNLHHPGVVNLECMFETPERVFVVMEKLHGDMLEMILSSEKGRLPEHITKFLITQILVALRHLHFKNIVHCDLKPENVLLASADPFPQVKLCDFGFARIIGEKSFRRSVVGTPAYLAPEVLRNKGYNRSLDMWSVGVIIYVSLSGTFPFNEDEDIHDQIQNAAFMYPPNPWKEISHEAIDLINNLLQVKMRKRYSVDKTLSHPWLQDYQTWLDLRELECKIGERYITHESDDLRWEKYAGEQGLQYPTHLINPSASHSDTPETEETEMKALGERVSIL
# Insulin prom inh – TRM-6 insulin promoter activity inhibition; TRM-6 cells (human fetal islet line), insulin promoter-eGFP reporter, imaging; reporter expression induced with tamoxifen; inhibition, % at 2 µM; 0.9% of 130,000 active;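 active = inhibition above the mean plus 3 SD, with well images judged a real hit on visual review, cut at about 60% in these data, passing the limit was not always enough; inconclusive = inhibition over the cutoff but images rejected on review; inactive = inhibition not above the cutoff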
# HSV augment – increases HSV replication in cells; HSV replication augmentation in cells, fold increase; AID 1956; maximum fold increase; 0.005% of 220,000 active;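 active = peak rise of 1.5-fold or more in the series; inconclusive = self-fluorescent or not available for retest; tested in PC3 cells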;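 also: first round at 10 µM; read as green reporter fluorescence; hits show the peak of a series up to 25 µM; 1 = signal of infected wells without compound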
# RGS16-Gao – regulators of human RGS16-Galphao interaction. bead-based flow cytometry RGS16-Galphao binding, fluorescence; actives lie on both sides. binding response (% of control), % at 10 µM. 0.38% of 220,000 active;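 active = below 25% or above 175%, edge rows of some plates excepted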;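 also: Galphao activated by GDP with aluminum fluoride before binding; 100% = wells without compound and 0% = beads without RGS; some results beyond the cut were filed as inactive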
# Insulin prom inh cell count – also measured in Insulin prom inh; calls as there; normalized cell count, %; measured here: cell count, toxicity; reference of the scale not given here;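 cells exposed to compound for 48 h; stained nuclei by imaging scaled within each plate; lower means fewer cells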
# HSV augment primary fold – further read-out of HSV augment, marked with its call; fold increase; compound at 10 µM; measured here: primary screen fold increase 10 uM; tested in PC3 cells;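 GFP signal in the first replicate; 1 = infected wells without compound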
# Numbers without * were called inactive; i = inactive; ? = inconclusive; nt = no result given.
# The opening 15 compounds (preview)
SMILES,GALR2 agonist,PKD1 kinase inh,Insulin prom inh,Insulin prom inh cell count,HSV augment,HSV augment primary fold,RGS16-Gao
C=CCn1c(-c2ccc(S(=O)(=O)N3CCOCC3)cc2)csc1=Nc1ccccc1,0.6,-2,-16,39,i,1,94
COCCNC(C)C(=O)C12CC3CC(CC(C3)C1)C2 (stereo unspecified),-2.4,-6,32,91,i,0.77,94
CCOCC(=O)Nc1ccccc1C(=O)O,nt,2,nt,nt,i,1.1,104
CCOC(=O)c1c(C)oc2c1c(C(c1ccccc1)N1CCOCC1)c(O)c1ccccc12 (stereo unspecified),-2.5,-4,25,95,i,1,101
Cc1cc(C(=O)Nc2c(C)nn(Cc3ccc(Cl)cc3)c2C)no1,nt,-2,nt,nt,i,1,101
Cc1scc(C(=O)N/N=C/c2ccco2)c1C,-1.7,-13,26,239,i,0.98,110
CC1=Nc2ccccc2/C1=C/c1sc(=S)n(-c2cccc(C(=O)O)c2)c1O,nt,-2,nt,nt,?,nt,103
CC(C)(C)NS(=O)(=O)c1ccc2nc(NC(=O)c3ccc(N4C(=O)CCC4=O)cc3)sc2c1,nt,3,nt,nt,i,0.95,103
CN(C)C(=O)N(CCCN1CCOCC1)Cc1cccc2ccccc12,nt,nt,nt,nt,i,1.2,98
COc1ccc(Cn2c(N)c(C#N)c3nc4ccccc4nc32)cc1,3.0,1,27,168,nt,nt,102
CC(C)(C)NC(=O)CCCSc1nc2ccccc2s1,nt,-2,-40,96,i,1,101
O=C(O)c1ccc(S(=O)(=O)c2ccc3c(c2)C(=O)N(CC2CCCO2)C3=O)cc1 (stereo unspecified),-2.7,1,-71,102,i,0.95,103
CN(C)CCCNC(=O)c1ccc(/C=N/O)nc1,nt,-10,-40,118,i,0.98,9.7*
CC1CCc2c(sc3ncn(Cc4ccc(C(=O)O)cc4)c(=O)c23)C1 (stereo unspecified),nt,3,nt,nt,i,0.95,85
COc1ccc(OC)c2sc(NC(=O)C3COc4ccccc4O3)nc12 (stereo unspecified),-2.4,-11,nt,nt,i,0.9,nt

# The listing, previewed entries included:
SMILES,GALR2 agonist,PKD1 kinase inh,Insulin prom inh,Insulin prom inh cell count,HSV augment,HSV augment primary fold,RGS16-Gao
C=CCn1c(-c2ccc(S(=O)(=O)N3CCOCC3)cc2)csc1=Nc1ccccc1,0.6,-2,-16,39,i,1,94
COCCNC(C)C(=O)C12CC3CC(CC(C3)C1)C2 (stereo unspecified),-2.4,-6,32,91,i,0.77,94
CCOCC(=O)Nc1ccccc1C(=O)O,nt,2,nt,nt,i,1.1,104
CCOC(=O)c1c(C)oc2c1c(C(c1ccccc1)N1CCOCC1)c(O)c1ccccc12 (stereo unspecified),-2.5,-4,25,95,i,1,101
Cc1cc(C(=O)Nc2c(C)nn(Cc3ccc(Cl)cc3)c2C)no1,nt,-2,nt,nt,i,1,101
Cc1scc(C(=O)N/N=C/c2ccco2)c1C,-1.7,-13,26,239,i,0.98,110
CC1=Nc2ccccc2/C1=C/c1sc(=S)n(-c2cccc(C(=O)O)c2)c1O,nt,-2,nt,nt,?,nt,103
CC(C)(C)NS(=O)(=O)c1ccc2nc(NC(=O)c3ccc(N4C(=O)CCC4=O)cc3)sc2c1,nt,3,nt,nt,i,0.95,103
CN(C)C(=O)N(CCCN1CCOCC1)Cc1cccc2ccccc12,nt,nt,nt,nt,i,1.2,98
COc1ccc(Cn2c(N)c(C#N)c3nc4ccccc4nc32)cc1,3.0,1,27,168,nt,nt,102
CC(C)(C)NC(=O)CCCSc1nc2ccccc2s1,nt,-2,-40,96,i,1,101
O=C(O)c1ccc(S(=O)(=O)c2ccc3c(c2)C(=O)N(CC2CCCO2)C3=O)cc1 (stereo unspecified),-2.7,1,-71,102,i,0.95,103
CN(C)CCCNC(=O)c1ccc(/C=N/O)nc1,nt,-10,-40,118,i,0.98,9.7*
CC1CCc2c(sc3ncn(Cc4ccc(C(=O)O)cc4)c(=O)c23)C1 (stereo unspecified),nt,3,nt,nt,i,0.95,85
COc1ccc(OC)c2sc(NC(=O)C3COc4ccccc4O3)nc12 (stereo unspecified),-2.4,-11,nt,nt,i,0.9,nt
O=C(NCc1cccnc1)c1cc(Sc2ccc(F)cc2F)nc2ccccc12,-1.1,-8,3,95,i,0.83,113
C=CCC1(O)CC(c2ccco2)NC(c2ccco2)C1CCC (stereo unspecified),-2.5,-6,-11,73,i,1,104
Cc1ccnc(NC(=O)CSc2cc(=O)n(C)c3ccccc23)c1,-2.1,17,nt,nt,i,0.79,99
CCOc1cc2c3c(c1)C1(OCCO1)C(=O)N3C(C)(C)CC2C (stereo unspecified),0.8,1,50,53,i,1,99
COc1ccc(N2CC(C(=O)OCC(=O)c3cccc(OC)c3)CC2=O)cc1 (stereo unspecified),-3.1,2,21,55,i,0.94,101
CCOC(=O)c1ccc(N2CC(O)=C(c3nc4ccccc4c(=O)[nH]3)C2=N)cc1,-2.5,0,-36,129,i,1,102
COc1ccc(C(c2nnnn2Cc2ccc(F)cc2)N2CCN(c3ccccc3)CC2)cc1 (stereo unspecified),-0.2,-3,nt,nt,i,0.95,105
NC(=O)CC(NC(=O)Cc1cccc2ccccc12)c1ccc(NCCc2ccccc2F)c([N+](=O)[O-])c1 (stereo unspecified),nt,nt,nt,nt,i,0.8,97
CCOc1ccccc1NC(=O)Nc1c(C)n(-c2ccccc2)c(=O)n1C,-3.4,-3,-26,75,i,0.9,87
CCCC(=O)NC(C)c1nc2ccccc2n1CC (stereo unspecified),-1.4,-9,nt,nt,i,1,102
# The listing continues.
SMILES,GALR2 agonist,PKD1 kinase inh,Insulin prom inh,Insulin prom inh cell count,HSV augment,HSV augment primary fold,RGS16-Gao
CC(C)c1ccc(-c2nn(-c3ccccc3)cc2C2C(C#N)=C(N)OC3=C2C(=O)CC(C)(C)C3)cc1 (stereo unspecified),-0.9,7,-24,136,i,0.95,114
CCC(C)(C)NC(=O)C(c1ccccn1)N(C(=O)c1csnn1)C1CCCCC1 (stereo unspecified),nt,0,-13,90,i,1.1,129
Cc1csc(SCC(=O)NCc2ccccc2)n1,nt,-2,nt,nt,i,0.99,96
Cc1ccc(S(=O)(=O)N(C)Cc2ccc(C(=O)N/N=C/c3ccc(OC(F)F)cc3OC(F)F)cc2)cc1,-0.6,-3,-13,66,i,0.7,94
CC(Sc1ccc2nnc(-c3ccc(F)cc3)n2n1)C(=O)O (stereo unspecified),nt,-11,nt,nt,nt,nt,90
O=c1c2ccccc2nc2n1C(CSCc1ccc(Cl)cc1Cl)CS2 (stereo unspecified),-1.3,14,0,72,i,1.1,81
CC(C)c1cc(C(=O)N2CCN(C(c3ccccc3)c3ccccc3)CC2)no1,-2.2,1,-25,99,i,0.97,99
Nc1nnc(SCc2nc3scc(-c4ccccc4)c3c(=O)[nH]2)s1,nt,nt,nt,nt,i,1.1,99
COc1ccc(-c2nn(-c3ccccc3C)cc2CNCCc2cnc[nH]2)cc1F,nt,-10,nt,nt,i,0.77,109
CCn1cc(CN2CCc3c([nH]c4ccccc34)C2c2cccc(OC)c2OC)c(C)n1 (stereo unspecified),nt,-3,42,98,i,1.1,102
Cc1ccc(/C=C2\C(=O)Nc3ccccc32)o1,-0.9,3,nt,nt,i,0.98,104
O=C(Nc1ccc(Br)cc1)c1cccc(S(=O)(=O)Nc2cnc3ccccc3c2)c1,-1.9,2,8,142,nt,nt,85
COc1ccc(NC(=O)C(NC(C)=O)C(=O)NCc2ccc(F)cc2)cc1 (stereo unspecified),0.1,-8,26,85,i,0.9,103
Cc1nc2c(C)cccn2c1/C(O)=C1\C(=O)C(=O)N(CCN2CCOCC2)C1c1cccs1 (stereo unspecified),-1.9,-14,-21,107,i,0.82,98
N#C/C(=C\c1ccc(-c2ccccc2)o1)C(=O)Nn1cnnc1,-4.2,-10,2,148,i,0.92,96
Cc1ccc(C(=O)CSc2nnc(C(C)C)n2C)cc1C,nt,-3,-64,136,i,1.1,98
CC(C)N=C(NC#N)SCc1ccccc1F,-2.0,-3,nt,nt,i,0.91,94
O=C(CCNC(=O)Cn1ccc2ccccc2c1=O)NCCC1=CCCCC1,nt,4,nt,nt,i,0.99,96
O=C(c1ccccc1)C1C(c2ccccc2)C1[N+](=O)[O-] (stereo unspecified),nt,nt,nt,nt,i,1.2,99
COc1ccc(C2=NN(CC(=O)Nc3cc(C)ccc3C)C(=O)CC2)cc1,nt,nt,nt,nt,i,1,58
CC(=O)CSc1nc(C(F)(F)F)cc(=O)n1-c1ccccc1,-0.2,-3,nt,nt,i,0.82,68
C#CCNC(=O)C1=C[C@@H](c2ccc3c(c2)OCO3)[C@H](CCCO)[C@@H](OCC)O1,nt,-8,nt,nt,i,0.77,107
O=C(c1cc(-c2cccc(O)c2)on1)N1CCCCC1,-1.1,6,0,113,i,0.87,100
CCc1ccc(NC(=S)N2CCN(c3cccc(C(F)(F)F)c3)CC2)cc1,0.9,3,0,97,i,0.83,94
Cc1ccc(-c2nn(-c3ccccc3)cc2CN(Cc2ccccc2)C(=O)c2ccco2)o1,-1.4,-1,-3,93,i,0.87,94
# (cont.)
SMILES,GALR2 agonist,PKD1 kinase inh,Insulin prom inh,Insulin prom inh cell count,HSV augment,HSV augment primary fold,RGS16-Gao
CCc1cccc(CC)c1NC(=O)COC(=O)C1(C)CC1(Cl)Cl (stereo unspecified),nt,3,nt,nt,i,1,101
CNc1oc(C)nc1S(=O)(=O)c1ccccc1,1.5,-2,nt,nt,i,0.84,107
O=C(CSc1nc2ccccc2s1)NNC(=S)Nc1ccc(Cl)cc1,-1.4,-7,59,64,?,nt,96
O=C(NNC1=NS(=O)(=O)c2ccccc21)c1ccccc1,nt,nt,nt,nt,i,0.93,99
COc1cc(-c2nnc3sc(Cc4ccccc4)nn23)cc(OC)c1OC,0.8,-10,nt,nt,i,0.83,70
COc1ccc2cc(C3(C)NC(=O)N(CC(=O)Nc4c(C)n(C)n(-c5ccccc5)c4=O)C3=O)ccc2c1 (stereo unspecified),-3.2,-8,nt,nt,i,1.1,109
COc1ccc(N2C(=O)CC(NCc3cccs3)C2=O)cc1 (stereo unspecified),-0.2,-14,30,124,i,0.99,173
CN(CCCNC(=O)c1cccc(N2CCCC2=O)c1)c1ccccc1,-0.4,10,39,36,i,0.98,102
CCc1cccc2c(C(=O)CSc3nncn3-c3ccccc3OC)c[nH]c12,-2.1,11,-26,77,i,0.94,176
CC(=O)N/N=C/c1cc(C)n(-c2ccc(Br)cc2)c1C,-0.4,7,44,85,i,0.99,99
O=C(COc1cccnc1[N+](=O)[O-])NC1CCS(=O)(=O)C1 (stereo unspecified),-1.5,-7,13,75,i,0.98,78
Cc1c(C(=O)N2CCCCC2)sc(NC(=O)C23CC4CC(CC(C4)C2)C3)c1C#N,-0.9,-3,-95,101,i,0.85,nt
CCCCNC(=S)N/N=C1\CCCCc2ccccc21,-0.1,-6,-30,100,i,0.93,110
Cc1csc(NC(=O)CCNS(=O)(=O)c2ccc3c(c2)c(=O)n(C)c(=O)n3C)n1,-1.2,15,0,157,i,0.85,94
CCOC(=O)c1sc(C)c2c1NC(c1ccc(Cl)cc1)NC2=O (stereo unspecified),3.5,0,15,112,i,0.91,101
COC(=O)CCCC1=CC2=C(c3ccccc3)C(=O)C(C)(OC(=O)C3CCCC3)C(=O)C2=CN1C(CO)CO (stereo unspecified),nt,nt,nt,nt,i,0.86,98
CCN1CCN(C(=O)/C(C#N)=C/c2ccc(OC(F)F)cc2)CC1,nt,-2,36,74,i,1,105
COc1ccc(C2CC(c3cccs3)=NN2C(=O)COC(=O)c2cc3ccccc3cc2O)cc1OC (stereo unspecified),0.2,-3,24,130,i,1,92

# Single values from the list.
# O=C(NNC1=NS(=O)(=O)c2ccccc21)c1ccccc1 | RGS16-Gao: 99
# CCN1CCN(C(=O)/C(C#N)=C/c2ccc(OC(F)F)cc2)CC1 | PKD1 kinase inh: -2
